# Compound activity: PubChem, Broad Institute
# rRNA inh HTS: reduced GFP signal of wild-type E. coli, primary screen, bacterial rRNA inhibitor project, GFP/RFP fluorescence, OD600, single point. 350,000 compounds, 1.6% hits. E. coli WT GFP vs humanized-ribosome RFP mutants, 24 h; hits give low values; DMSO median 0, no signal -100. GFP signal change (wild-type ribosome), % (test concentration not listed). AID 720706, 2013;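 active = significant combined selectivity score with lowered wild-type GFP, culture density cut under 30%, mutant RFP and density less affected; inactive = any of these conditions unmet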; note: one replicate is shown; some compounds called inactive have numbers as strong as hits
# rRNA inh HTS OD600: recorded beside rRNA inh HTS, whose call it bears; OD600 change, %; measured here: OD600 growth;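 optical density of the mix in the first replicate; 0 = DMSO median and -100 = no signal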
# rRNA inh HTS RFP: second read-out of rRNA inh HTS, no call of its own (marks repeat the call); RFP signal change, %; measured here: RFP humanized mutant strains;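 first replicate; 0 = DMSO median and -100 = no signal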
# Active calls of the source: *; & = joins results of further samples.
SMILES	rRNA inh HTS	rRNA inh HTS OD600	rRNA inh HTS RFP
N#C[C@H]1[C@@H](c2ccc(C#Cc3ccccc3F)cc2)[C@@H](CO)N1C(=O)C1CCCC1	-44	-67	-2.4
CCCC#Cc1ccc([C@@H]2[C@@H](CO)N3C(=O)CN(S(=O)(=O)Cc4ccccc4)C[C@@H]23)cc1	-25	-48	24
C[C@H](NC(=O)C[C@H]1C[C@H]2c3cc(NC(=O)NC4CCCC4)ccc3O[C@H]2[C@H](CO)O1)c1ccccc1	2	0	-0.4
CCC(=O)N1CC(=O)N2[C@H](CO)[C@H](c3ccc(-c4ccccc4F)cc3)[C@@H]2C1	3	22	-3.1
C[C@@H]1CCCCO[C@@H](CN(C)S(=O)(=O)c2ccccc2)[C@H](C)CN([C@@H](C)CO)C(=O)c2cc(NC(=O)CCC(F)(F)F)ccc2O1	-2	-12	0.1
CO[C@@H]1CN(C)C(=O)c2ccc(NC(=O)C3CCOCC3)cc2OC[C@@H](C)N(Cc2ccc(F)cc2)C[C@H]1C	-3	-17	-1.5
C[C@@H]1CN([C@H](C)CO)C(=O)Cc2cc(N(C)C)ccc2O[C@@H]1CN(C)S(=O)(=O)c1cccs1	0	2	-1.3
C/C=C/c1ccccc1[C@@H]1[C@H](C#N)N(C(=O)c2cccnc2)[C@H]1CO	7	12	1.1
O=C(c1cccc(F)c1)N1CC(=O)N2[C@H](C1)[C@H](c1ccc(C3=CCCC3)cc1)[C@@H]2CO	1	11	-2.2
O=C(c1cccc(F)c1)N1CC(=O)N2[C@H](CO)[C@@H](c3ccc(C4=CCCC4)cc3)[C@H]2C1	-1	5	-4.7

# Single records (already shown):
# `C[C@@H]1CCCCO[C@@H](CN(C)S(=O)(=O)c2ccccc2)[C@H](C)CN([C@@H](C)CO)C(=O)c2cc(NC(=O)CCC(F)(F)F)ccc2O1` is entered as rRNA inh HTS = -2; rRNA inh HTS OD600 = -12; rRNA inh HTS RFP = 0.1
# `C/C=C/c1ccccc1[C@@H]1[C@H](C#N)N(C(=O)c2cccnc2)[C@H]1CO` is entered as rRNA inh HTS = 7; rRNA inh HTS OD600 = 12; rRNA inh HTS RFP = 1.1

# Further compounds follow.
SMILES	rRNA inh HTS	rRNA inh HTS OD600	rRNA inh HTS RFP
COc1ccc(C#Cc2ccc3c(c2)[C@H]2[C@H](CCN2C(=O)c2cnccn2)[C@H](CO)N3)cc1	-9	12	-1.4
COc1ccc(S(=O)(=O)N2[C@@H]3CNC[C@H]2C3c2ccc(-c3cccc(OC)c3)cc2)cc1 (stereo partly drawn)	-58&4	-79&-9	-13&3.7
C[C@H](CO)N1C[C@H](C)[C@H](CN(C)C(=O)c2ccc(N3CCN(C)CC3)cc2)OCc2cn(nn2)CCCC1=O	1	2	0.5
CN(Cc1ccccc1F)C[C@H]1[C@@H](c2ccccc2)[C@@H](CO)N1S(C)(=O)=O	-3	-2	-1.1
C[C@H](CO)N1C[C@H](C)[C@H](CN(C)S(=O)(=O)c2ccc(Cl)cc2)Oc2ccc(NS(C)(=O)=O)cc2C1=O	3	6	-0.3
O=C(C[C@@H]1CC[C@H]2[C@@H](COC[C@H](O)CN2CC2CC2)O1)NCC1CC1	2	17	-2.1
CN(C)C(=O)c1cccc(-c2ccc3c(c2)[C@@H]2[C@@H](CCN2C(=O)C2CCCC2)[C@H](CO)N3)c1	-7	-8	0.1
C[C@@H]1CCCCO[C@H](CN(C)CC2CCCCC2)[C@@H](C)CN([C@H](C)CO)C(=O)c2cc(NC(=O)CCCCCC(=O)Nc3ccccc3N)ccc2O1	0	-5	4.2
C[C@@H]1CN([C@H](C)CO)S(=O)(=O)c2ccc(Br)cc2O[C@@H]1CN(C)C(=O)C1CCC1	-5	-2	0.1
CCCNC(=O)N1CC(=O)N2[C@H](CO)[C@@H](c3ccc(C#Cc4ccc(F)cc4)cc3)[C@@H]2C1	-58	-72	-16
CNC[C@H]1Oc2ccc(NS(=O)(=O)c3cn(C)cn3)cc2C(=O)N([C@H](C)CO)C[C@@H]1C	1	1	-1.6
CN1C(=O)c2cc(NC(=O)C3CC3)ccc2OC[C@@H]2O[C@@H](CC(=O)O)CC[C@@H]21	2	3	-1.2
C/C=C/c1ccc([C@H]2[C@H]3CN(C(=O)c4ccncc4)CC(=O)N3[C@H]2CO)cc1	5	1	-0.6
O=S(=O)(c1ccccc1F)N1C[C@@H]2N[C@H](C1)C2c1ccc(/C=C/c2ccccc2)cc1 (stereo partly drawn)	1&-59	-8&-71	-3.8&-14
COc1cccc(CNC(=O)C[C@H]2C=C[C@@H](NC(=O)C3CCC3)[C@H](CO)O2)c1	4	6	-1.6
O=C(Nc1ccc(F)cc1)N1CC(=O)N2[C@H](CO)[C@@H](c3ccc(-c4ccccc4)cc3)[C@@H]2C1	-38	-64	-0.6
C/C=C/c1ccc2c(c1)[C@@H]1[C@@H](CCN1S(=O)(=O)c1ccccc1C)[C@H](CO)N2	-14	-13	1.9
COc1ccc(S(=O)(=O)N(C)C[C@H]2Oc3ccc(NS(=O)(=O)c4cn(C)cn4)cc3C(=O)N([C@@H](C)CO)C[C@H]2C)cc1	3	6	2.8
C/C=C/c1ccc([C@@H]2[C@@H](CO)N(C(=O)CC)[C@@H]2CNC(=O)CC2CC2)cc1	-1	-5	3.3
O=C(C1CCC1)N1CC2(C1)[C@@H](c1ccccc1)[C@@H](CO)N2Cc1nccs1	2	10	-0.9

# The list goes on; it opens with the 3 that closed the last part.
SMILES	rRNA inh HTS	rRNA inh HTS OD600	rRNA inh HTS RFP
COc1ccc(S(=O)(=O)N(C)C[C@H]2Oc3ccc(NS(=O)(=O)c4cn(C)cn4)cc3C(=O)N([C@@H](C)CO)C[C@H]2C)cc1	3	6	2.8
C/C=C/c1ccc([C@@H]2[C@@H](CO)N(C(=O)CC)[C@@H]2CNC(=O)CC2CC2)cc1	-1	-5	3.3
O=C(C1CCC1)N1CC2(C1)[C@@H](c1ccccc1)[C@@H](CO)N2Cc1nccs1	2	10	-0.9
C[C@H]1CN(C)C(=O)c2cc(N(C)C)ccc2O[C@@H]1CN(C)C(=O)OC(C)(C)C	-1	5	-1.8
CCN1[C@@H]2c3ccc(C4=CCCCC4)c(=O)n3C[C@H]1[C@H](CO)[C@H]2C(=O)NC1Cc2ccccc2C1	-10	-16	1.0
COCC(=O)N1CC(=O)N2[C@H](CO)[C@@H](c3ccc(C#Cc4cccc(OC)c4)cc3)[C@@H]2C1	-1	-6	3.2
COc1ccc2c3c([nH]c2c1)[C@H](CO)N(Cc1ccc(Cl)cc1)CC31CN(Cc2ccccc2)C1	-9	-32	22
C[C@H](CO)N1C[C@H](C)[C@@H](CN(C)Cc2ccncc2)OCCCC[C@H](C)Oc2ccc(NC(=O)C3CCCCC3)cc2C1=O	-3	0	-0.1
CCCC#Cc1ccc([C@@H]2[C@@H](CO)N3C(=O)CN(C(=O)Nc4ccc(F)cc4)C[C@H]23)cc1	-1	-30	23
C[C@@H]1CN([C@@H](C)CO)C(=O)c2cc(NC(=O)Cc3ccccc3)ccc2O[C@H]1CN(C)Cc1ccc(-c2ccccc2)cc1	5	-8	16
C[C@H]1CN([C@@H](C)CO)S(=O)(=O)c2ccc(C#CC3CCCC3)cc2O[C@@H]1CN(C)C(=O)Cc1ccccc1	0	2	2.2
O=C(C1CCCC1)N1CC(=O)N2[C@H](CO)[C@@H](c3ccc(-c4cccnc4)cc3)[C@@H]2C1	5	11	0.3
COCC(=O)N1CC2(CCN(C(=O)c3cccnc3)CC2)c2c([nH]c3cc(OC)ccc23)[C@@H]1CO	3	19	-1.0
COc1ccc2c3c([nH]c2c1)[C@H](CO)N(Cc1ccccc1)CC31CCN(C(=O)c2cccnc2)CC1	-3	-11	0.3
O=C(C[C@H]1C[C@H]2c3cc(NS(=O)(=O)c4ccc(F)cc4)ccc3O[C@H]2[C@H](CO)O1)NCc1ccccn1	2	-6	-2.0
C[C@H](CO)N1C[C@H](C)[C@H](CN(C)S(=O)(=O)c2ccc(C#N)cc2)Oc2ncc(C#Cc3ccc(C(F)(F)F)cc3)cc2C1=O	-2	-4	-2.8
COc1ccc2c3c(n(C)c2c1)[C@H](CO)N(C(=O)c1ccncc1)CC31CN(S(C)(=O)=O)C1	1	8	-0.1
C/C=C/c1ccc([C@@H]2[C@@H](CO)N3C(=O)CN(C(=O)c4cnccn4)C[C@H]23)cc1	0	-7	-3.9
CNC(=O)C[C@H]1CC[C@H]2[C@@H](COc3ccc(NC(=O)Nc4cc(C)cc(C)c4)cc3C(=O)N2C)O1	3	-1	-0.5
CN1C(=O)c2cc(NC(=O)c3cccc(F)c3)ccc2OC[C@H]2O[C@@H](CC(=O)NCC3CC3)CC[C@H]21	-1	4	0.9
CNC[C@@H]1OCc2cn(nn2)CCCC(=O)N([C@H](C)CO)C[C@H]1C	2	8	0.8
O=C(C[C@@H]1CC[C@@H]2[C@H](COC[C@H](O)CN2C(=O)c2ccccc2F)O1)NCc1ccccc1	1	-3	1.4
C[C@H](CO)N1C[C@H](C)[C@@H](CN(C)C(=O)Nc2ccccc2)Oc2c(NC(=O)CCC(F)(F)F)cccc2C1=O	6	7	-2.0
C/C=C/c1ccc([C@@H]2[C@H]3CN(C(=O)Nc4ccc(OC)cc4)CC(=O)N3[C@H]2CO)cc1	1	-6	11
CC(=O)N(C[C@@H]1[C@@H](c2ccc(C3=CCCC3)cc2)[C@@H](CO)N1CC1CC1)C(C)C	2	2	2.2
CN(C)C(=O)c1cccc(-c2ccc(C3[C@@H]4CN(C(=O)Nc5ccccc5F)C[C@H]3N4)cc2)c1 (stereo partly drawn)	2&3	5&2	-2.7&-0.4
Cc1ccc(-c2ccc([C@@H]3[C@@H](CO)N4C(=O)CN(C(=O)c5ccccc5)C[C@H]34)cc2)cc1	10	-41	25
COc1ccc2c3c([nH]c2c1)[C@@H](CO)N(C(C)=O)CC31CCN(C(=O)Nc2ccc(F)cc2F)CC1	-4	-3	0.5
CCS(=O)(=O)N1CC(=O)N2[C@H](CO)[C@@H](c3ccc(C#CCC4CCCC4)cc3)[C@@H]2C1	-49	-69	0.5
C[C@@H]1CN([C@@H](C)CO)C(=O)c2cc(NC(=O)C3CCCCC3)ccc2O[C@@H](C)CCCCO[C@H]1CN(C)C(=O)c1ccncc1	0	2	0.8
N#Cc1ccc(-c2ccc([C@H]3[C@@H](CO)N4C(=O)CN(C(=O)C5CCCC5)C[C@@H]34)cc2)cc1	-1	-11	-0.2
CCS(=O)(=O)Nc1ccc2c(c1)C(=O)N(C)C[C@H](OC)[C@@H](C)CN(CC1CCCC1)[C@@H](C)CO2	-2	-12	1.6
C[C@H](CO)N1C[C@H](C)[C@H](CN(C)Cc2ccc(Cl)c(Cl)c2)Oc2ccc(NC(=O)Nc3ccccc3)cc2C1=O	5	0	1.3
C[C@H](CO)N1C[C@H](C)[C@H](CN(C)C(=O)NC2CCCCC2)Oc2ccc(NC(=O)CCCN(C)C)cc2C1=O	4	5	0.7
Cn1cnc(S(=O)(=O)N2CC[C@@H]3[C@H]2c2cc(C#Cc4cccc(F)c4)ccc2N[C@@H]3CO)c1	-9	-24	11
COc1cccc(-c2ccc(C3[C@H]4CNC[C@@H]3N4S(=O)(=O)c3cccc(Cl)c3)cc2)c1 (stereo partly drawn)	-57&-3	-80&0	-7.1&3.1
C[C@H]1CN([C@@H](C)CO)C(=O)c2c(c3ccccc3n2C)-c2ccccc2CO[C@@H]1CN(C)CC1CCCCC1	-7	-39	12
O=C1NCCOCc2cn(nn2)CC[C@H]1Cc1ccccc1	3	10	-4.3
C[C@H](CO)N1C[C@H](C)[C@H](CN(C)S(=O)(=O)c2cn(C)cn2)Oc2ccc(NS(=O)(=O)c3cn(C)cn3)cc2C1=O	2	5	-1.9
CCCC#Cc1ccc([C@@H]2[C@H]3CN(S(=O)(=O)Cc4ccccc4)CC(=O)N3[C@H]2CO)cc1	-27	-62	8.4
CC(C)NC(=O)Nc1ccc2c(c1)CC(=O)N(C)C[C@@H](C)[C@H](CN(C)S(C)(=O)=O)O2	0	7	0.6
COCC(=O)N1[C@H](C#N)[C@H](c2ccccc2C2=CCCCC2)[C@H]1CO	-8	7	-3.9
CCC(=O)N(C)C[C@H]1N[C@@H](CO)[C@H]1c1ccc(-c2cccc(C#N)c2)cc1	-2	-6	2.2
O=C(C1CCCC1)N1CC[C@H]2[C@H](CO)Nc3ccc(C4=CCCCC4)cc3[C@H]21	-29	-45	24
CNC[C@@H]1OCCCC[C@H](C)Oc2ccc(NC(=O)Nc3ccc(C(F)(F)F)cc3)cc2C(=O)N([C@@H](C)CO)C[C@H]1C	-55	-78	-13
O=C(c1ccc(F)cc1)N1CC(=O)N2[C@@H](CO)[C@@H](c3ccc(C#Cc4ccc(F)cc4)cc3)[C@@H]2C1	-52	-75	-7.8
CCN1[C@@H]2c3ccc(-c4cccc(F)c4)c(=O)n3C[C@@H]2[C@@H](CO)[C@@H]1C(=O)NCCCN(C)C	2	10	-1.8
COc1cccc(CNC(=O)C[C@H]2C=C[C@@H](NS(=O)(=O)c3ccccc3OC)[C@@H](CO)O2)c1	-2	2	-0.2
O=C(CN1CCOCC1)N1CC(=O)N2[C@H](C1)[C@@H](c1ccc(-c3cccc(F)c3)cc1)[C@@H]2CO	-2	-5	-2.2

# A portion of the library. The share of hits here may be higher or lower than overall.
